Screening results from PubChem.
RVFV N-RNA inh: inhibitors of Rift Valley Fever Virus nucleocapsid-RNA interaction; P21700; RVFV N-RNA binding, fluorescence polarization; hits give low values; 20,000 compounds, 0.1% hits; % bound, % (concentration not given with the values);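 active means between 0 and 58% in either replicate with normal brightness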;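 further: 100 nL library stock added to about 12 µL; 100% = protein and probe without compound and 0% = probe alone; numbers are from one replicate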
Target sequence (P21700 whole entry, looked up): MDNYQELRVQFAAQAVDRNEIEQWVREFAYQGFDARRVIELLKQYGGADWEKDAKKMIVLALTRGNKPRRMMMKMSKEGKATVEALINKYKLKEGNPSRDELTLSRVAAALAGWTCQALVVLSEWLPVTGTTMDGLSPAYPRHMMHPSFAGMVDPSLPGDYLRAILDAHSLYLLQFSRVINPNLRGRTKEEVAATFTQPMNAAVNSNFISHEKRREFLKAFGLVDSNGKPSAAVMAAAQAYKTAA
* hit, by the source's call; & = joins results of further samples; ! = repeats disagree. A portion of the library; rates above refer to the full screens.

canonical_smiles	RVFV N-RNA inh
O=C(CCCCCN1C(=O)CCC1=O)Nc1ccccc1	96.7
COc1ccc(/C=N/c2nc3ccccc3n2C)c2c(OC)cccc12	92.4
CCC1CCC(N2CCN(c3ccc(Cl)cc3)CC2)CC1 (configuration not stated)	96.2
C=CCN(CC=C)CC(O)Cn1c(C)c(C)c2ccccc21 (configuration not stated)	96.3
O=C(c1ccc(Br)c(S(=O)(=O)N2CCCCC2)c1)N1CCCCC1	99.5
Cc1nc(C(=O)Nc2cccc(Cl)c2Cl)c(C(F)(F)F)o1	102.6
NC[C@H]1O[C@@H](n2cnc3c(N)ncnc32)[C@H](O)[C@@H]1O	106.1
COc1cccc2c1OC1(C)NC(=O)NC2C1C(=O)Nc1cccc(Cl)c1 (configuration not stated)	95.4
COc1ccc(-c2cc(-c3nnc(N)o3)no2)cc1OC	92.5
CSCCCN1CCOCC1	98.6

Additional entries.
canonical_smiles	RVFV N-RNA inh
O=S(=O)(NCC(c1cccs1)S(=O)(=O)c1ccccc1)c1ccccc1 (configuration not stated)	91.2
Cc1c(Cl)cccc1NC(=O)Nc1cccc(Cn2cccn2)c1	93.7
Cc1cccc(OCC(=O)NC(=S)Nc2ccc(-c3nc4ccccc4o3)cc2)c1	94.0
S=c1nc(N2CCCCC2)[nH]c(N2CCCCC2)n1	88.3
COc1ccc(C(=O)CSc2nnc(C)s2)cc1OC	95.7
CC#CC(=O)Nc1cc2c(Nc3ccc(F)c(Cl)c3)ncnc2cn1	102.2
COC(=O)c1ccc(CSCC(=O)Nc2ccccc2)cc1	93.5
CS(=O)(=O)N(CC(=O)N1CCCC1)Cc1ccc(F)cc1	99.5
COC(=O)NCc1cc2cc(Cl)ccc2[nH]1	99.4
OCc1ccc(OCCOCCOc2ccc(Cl)c3cccnc23)cc1	96.4

Other compounds:
canonical_smiles	RVFV N-RNA inh
O=C(CC1Sc2ncnn2C1=O)Nc1ccccc1 (configuration not stated)	99.0
CCCNS(=O)(=O)c1cc(Cl)ccc1OC	94.6
OCCn1nnnc1NCc1ccc(Br)cc1	89.3
COc1ccc(CCN2CNC(=S)NC2)cc1OC	91.2
COc1ccc(Br)cc1/C=N/c1ncn[nH]1	98.6
CCCN1CCC(NC2CCCc3ccccc32)CC1 (configuration not stated)	91.3
Nc1c(C(=O)NCc2ccco2)c2nc3ccccc3nc2n1CCc1ccccc1F	101.4
O=C(CCCN1CCC2(CC1)C(=O)NCN2c1ccccc1)c1ccc(F)cc1	56.0*!
Cc1[nH]nc(-c2ccc(O)cc2O)c1Oc1ccc(F)cc1	97.9
O=C1c2ccccc2NC(c2ccccn2)N1CCCN1CCOCC1 (configuration not stated)	93.2

The results go on:
canonical_smiles	RVFV N-RNA inh
Cc1cc(OC(C)C(=O)NCC2CCCO2)cc(C)c1Cl (configuration not stated)	96.9
CC(=O)N(Cc1ccccc1)Cc1cn(-c2ccccc2)nc1-c1cccs1	99.5
Cn1c2ccccc2c2[nH]c3ccccc3c21	90.5
C[C@@H](O)[C@@H]1NC(=O)[C@H](CCCCN)NC(=O)[C@@H](Cc2c[nH]c3ccccc23)NC(=O)[C@H](Cc2ccccc2)NC(=O)[C@@H](NC(=O)[C@H](N)Cc2ccccc2)CSSC[C@@H](C(=O)N[C@H](CO)[C@@H](C)O)NC1=O	100.7
COc1ccc(C(=O)NCc2cccnc2)cc1C(=O)NCc1cccnc1	99.6&88.5
CCN(C(=O)Cc1ccc(Cl)cc1)c1ccccc1	92.0
Cn1c(O)c(-c2[nH]c3ccccc3c2N=O)c2ccc(Br)cc21	101.9
O=C(c1ccco1)N1N=C(c2ccccc2)CC1c1cc2cc3c(cc2nc1Cl)OCCO3 (configuration not stated)	96.0
OC[C@H]1O[C@@H](Oc2cc(O)cc(/C=C/c3ccc(O)cc3)c2)[C@H](O)[C@@H](O)[C@@H]1O	104.8
O=c1c(-c2nc(-c3ccc(C(F)(F)F)cc3)no2)cnc2n1CCS2	103.3

(more compounds)
canonical_smiles	RVFV N-RNA inh
CCSc1nnc(NC(=O)C2CC2)s1	92.9
CCn1c(O)c(C=Nc2ccc(Cl)c(C(=O)O)c2)c(=O)[nH]c1=O	97.6
CC(Oc1ccccc1)c1nc(-c2cccc(Br)c2)no1 (configuration not stated)	108.1
Cc1onc(-c2c(Cl)cccc2Cl)c1C(=O)NC(=S)Nc1ccccc1	100.7
CC(NC(=O)c1cc(-c2ccc3c(c2)OCO3)nc2ccccc12)C1CCCO1 (configuration not stated)	92.1
CC(C)(C)NC(=O)c1ccccc1NC(=O)c1cccnc1	99.4
CC1S/C(=N\N=C2\CCCc3ccccc32)NC1=O (configuration not stated)	96.1
O=C(NCc1n[nH]c(=S)n1Cc1ccccc1)c1ccccc1	92.6
Cn1c(=O)[nH]c(=O)c2[nH]c(CN3CCN(Cc4ccccc4)CC3)nc21	91.8
COc1ccc(F)cc1S(=O)(=O)Nc1ccc2c(c1)N(C(C)=O)CCC2	90.7

Later entries
canonical_smiles	RVFV N-RNA inh
Cc1nnc(SCc2cc(=O)[nH]c(N3CCN(c4ccccc4)CC3)n2)s1	102.9
Brc1ccc(-c2nnc3sc(CN4CCCCC4)cn23)cc1	90.4
O=C(O)C1C2C=CC3(O2)C1C(=O)N1c2ccccc2COC13 (configuration not stated)	82.7
NC1=NC(c2ccc(Cl)cc2)C(C(=O)c2ccccc2)N1 (configuration not stated)	95.8
c1ccc(COn2c3c(c4c5nonc5ccc42)CCCC3)cc1	81.7
CC(=O)Nc1c2c(nn1-c1ccc(F)cc1)CSC2	93.1
CCN(CC)CCNc1ccc2nnc(CCNS(=O)(=O)c3ccc(C)cc3)n2n1	94.0
O=C(Nc1ccncc1)c1ccc2nc[nH]c2c1	102.0
CC(NC(=O)c1cccs1)C(c1cccs1)N1CCN(c2ccccc2)CC1 (configuration not stated)	100.1
O=c1[nH]c(N2CCN(Cc3ccccc3)CC2)nc(O)c1Cc1ccccc1	95.7

(cont.)
canonical_smiles	RVFV N-RNA inh
CC(=O)NC(=S)Nc1ccc(Cl)cc1	91.3
O=C1c2ccc(-c3nc4cc(Cl)ccc4c(=O)o3)cc2C(=O)N1CC1CCCO1 (configuration not stated)	99.6
COc1cnn(-c2cccc(Cl)c2)c(=O)c1Cl	104.5
C=CCSc1nnc(CCc2nnc(SCC=C)n2-c2ccccc2)n1-c1ccccc1	96.0
COc1cc(C2N(c3ccccc3)CCN2c2ccccc2)cc(OC)c1OC	92.4
Cc1nc(SCC(=O)c2cc(C)n(-c3ccccc3)c2C)c2ccsc2n1	82.7
Cc1nnc(NC(=O)C(C)Oc2ccc(Cl)c(C)c2)s1 (configuration not stated)	97.3
CN(C)c1nc(Nc2ccc(F)cc2)nc(Oc2ccc(F)cc2)n1	96.3
CC1=NN(c2ccccc2)C(=O)/C1=C1/C(=O)N(c2ccccc2)N=C1C	92.2
CCOCCn1c(=NC(=O)C(C)(C)C)sc2cc(S(C)(=O)=O)ccc21	99.5

Looked up above.
Result for CC(=O)NC(=S)Nc1ccc(Cl)cc1 in RVFV N-RNA inh: 91.3
Result for O=C1c2ccc(-c3nc4cc(Cl)ccc4c(=O)o3)cc2C(=O)N1CC1CCCO1 (configuration not stated) in RVFV N-RNA inh: 99.6
Result for CN(C)c1nc(Nc2ccc(F)cc2)nc(Oc2ccc(F)cc2)n1 in RVFV N-RNA inh: 96.3
Result for CCOCCn1c(=NC(=O)C(C)(C)C)sc2cc(S(C)(=O)=O)ccc21 in RVFV N-RNA inh: 99.5

Following part.
canonical_smiles	RVFV N-RNA inh
O=C1NC(=O)C(CC(=O)N2CCCCC2)N1 (configuration not stated)	100.5
CCCN1CCCC[C@H]1C(=O)Nc1c(C)cccc1C	97.7
CSc1nsc(SCCN2C(=O)c3ccccc3C2=O)n1	97.7
CC(=O)n1nc(C)c(Sc2nnnn2-c2ccccc2)c1C	93.5
CN1CCN(Nc2nc3c(c(=O)[nH]c(=O)n3C)n2Cc2ccc(F)cc2)CC1	91.2
Cc1nc2ccccc2[nH]c1=S	102.5
C=CCSc1nnc2c(n1)[nH]c1ccccc12	93.9
COc1cccc(C(=O)NC(c2ccco2)c2c(O)ccc3ccccc23)c1 (configuration not stated)	92.3
Cc1ccc(NC(=O)CCC(=O)c2cccs2)cc1	96.8
O=C(CSCc1ccco1)Nc1ccc(Br)cc1	94.8

A different layout for part of the listing above.
molecule: Cc1ccc(NC(=O)CCC(=O)c2cccs2)cc1
  RVFV N-RNA inh: 96.8

molecule: O=C1NC(=O)C(CC(=O)N2CCCCC2)N1 (configuration not stated)
  RVFV N-RNA inh: 100.5

molecule: Cc1nc2ccccc2[nH]c1=S
  RVFV N-RNA inh: 102.5

(more compounds)
canonical_smiles	RVFV N-RNA inh
CC(=O)Nc1ccc(S(=O)(=O)Nc2cc(C)c(-n3nc4ccccc4n3)cc2O)cc1	104.6
CN1C(=O)/C(=C2/C=CC=CN2C)SC1=S	93.3
Cc1cccc2c1[nH]c1nc(=S)[nH]nc12	95.3
Cc1ccc(C(=O)CSc2nc3ccccc3c(=O)n2N)o1	99.7
CCNC(=O)N(Cc1ccc(Cl)cc1)Cc1cccnc1	89.0
CCN=c1sc(C2=c3ccccc3=NC2=O)c(O)n1CC	100.3
Cc1ccc(C(=O)OCc2ccccc2)cc1NC(=O)c1ccco1	94.4
CC(C)c1ccc(OCC(=O)N2CCCc3ccccc32)cc1	92.5
O=C1NC(=O)N(CCC2=CCCCC2)C(=O)/C1=C/c1cnc(-c2ccccc2)nc1	88.3
Nn1c(Cc2ccccc2)n[nH]c1=S	91.1

(list continues)
canonical_smiles	RVFV N-RNA inh
CC(O)(CC#N)c1ccccc1 (configuration not stated)	101.8
Cc1noc(C)c1NC(=O)NC1Cc2ccccc2C1	98.0
Cc1ccc(N2CC(C(=O)Nc3nnc(SCC(=O)NCc4ccco4)s3)CC2=O)cc1C (configuration not stated)	96.9
O=C(NN1CCN(c2ccccc2)CC1)c1cc(Cl)sc1Cl	83.6
c1ccn2c(c1)nc1c2nc2ccccn21	85.9
C=CCNC(=O)COc1cccc2c(=O)n(CC)ccc12	98.1
O=C(Nc1ccc(C(=O)N2CCCc3ccccc32)cc1)c1ccco1	95.2
Cc1c(C(=O)NCCN2CCOCC2)sc2nc(-c3ccc(F)cc3)cn12	97.0
Cc1ccnc(NC(=O)CCC(=O)O)c1	89.2
COc1ccc(CCNC(=O)COc2cccc3c2CCN(Cc2cccnc2)C3=O)cc1OC	99.3

Additional compounds.
canonical_smiles	RVFV N-RNA inh
O=C(Oc1ccc2c(c1)OCO2)N1CCOCC1	97.7
CC(=O)Nc1ccc(NC(=O)CS(=O)(=O)Cc2ccccc2)cc1	103.1
Cc1c(C(=O)O)[nH]c2c1C(=O)CC(c1ccc(Cl)cc1)C2 (configuration not stated)	92.4
Clc1ccc(-c2nc(N3CCOCC3)nc3ccccc23)cc1	88.6
O=C(/C=C/c1ccco1)Nc1ccc(S(=O)(=O)N2CCc3ccccc32)cc1	88.2
CN1CCC(N(C)C(=O)NC2CC(=O)N(c3cccc(F)c3)C2)CC1 (configuration not stated)	99.8
Cc1onc(-c2ccccc2)c1CNC(=O)Nc1cccc(Cl)c1	104.0
Cc1cc(C)c2c(=O)[nH]sc2n1	94.3
COC(=O)c1ccc(O)c(Sc2cc(C(=O)OC)ccc2O)c1	90.1
CCn1c(=O)n(CC)c2cc(S(=O)(=O)Nc3ccccc3C)c(C)cc21	100.5

The last 4 compounds of the part before open the next one.
canonical_smiles	RVFV N-RNA inh
Cc1onc(-c2ccccc2)c1CNC(=O)Nc1cccc(Cl)c1	104.0
Cc1cc(C)c2c(=O)[nH]sc2n1	94.3
COC(=O)c1ccc(O)c(Sc2cc(C(=O)OC)ccc2O)c1	90.1
CCn1c(=O)n(CC)c2cc(S(=O)(=O)Nc3ccccc3C)c(C)cc21	100.5
Nc1c(C(=O)N2CCCC2)sc2nc(-c3ccccc3)ccc12	90.5
O=c1[nH]c(NCCCN2CCOCC2)nnc1-c1ccccc1	93.9
Cc1cc(-n2c(=O)[nH]c(=O)n(C)c2=O)ccc1Oc1ccc(SC(F)(F)F)cc1	92.0
Cc1ccc(S(=O)(=O)NCCN2CCOCC2)cc1-c1nnc2c3ccccc3c(C)nn12	95.1
CCN(CC)C(=O)c1ccc(I)cc1	90.6
Cc1cc(O)c(C(=O)Nc2ccc(Cl)c(Cl)c2)c(=O)n1CC1CCCO1 (configuration not stated)	94.8
CCC1S/C(=N\C(=O)Nc2ccc(Cl)c(Cl)c2)NC1=O (configuration not stated)	106.9
CN1CCCN(Cc2cc(Br)cs2)CC1	101.5
CC(C)(C)NC(=O)NCC1COC2(CCCCC2)O1 (configuration not stated)	95.3
Cc1ccc(C)n1-c1ccsc1C(=O)NN	97.1

The list goes on.
canonical_smiles	RVFV N-RNA inh
COCCNC(=O)c1cc2sc3ccccc3c2s1	105.8
CCN(CC)C(=O)c1ccccc1-c1ccccc1C(=O)O	91.4
CCC1(CC)C(=O)C(C)(C)C(=O)OC1c1cccs1 (configuration not stated)	93.0
COc1ccc2oc(=O)cc(-c3cc4cccc(OC)c4o3)c2c1	98.5
O/N=C1\COc2ccccc2O1	98.9
CO/C(N)=N/C(=S)Nc1ccc(F)cc1F	92.1
CCOC(=O)c1sc(S(C)=O)c2c1CCc1conc1-2 (configuration not stated)	98.6
CCCCn1c(=N)c(C(N)=O)cc2c(=O)n3ccccc3nc21	103.5
COc1cccc(NC(=S)Nc2ccc(N(C)C)cc2)c1	92.1
NC(=O)c1oc2ccccc2c1NC(=O)COc1ccccc1	92.4

(cont.)
canonical_smiles	RVFV N-RNA inh
Cc1ccc(S(=O)(=O)C(C)(C)C)s1	96.3
CCN=C(NCC)SC1CC(=O)N(c2ccccc2)C1=O (configuration not stated)	86.3
CC(C)(C)n1ncc2c(=O)n(Cc3ccccc3)cnc21	94.8
CC1CN(C(=O)NC23CC4CC(CC(C4)C2)C3)CC(C)O1 (configuration not stated)	91.6
CO/N=C(\C(=O)N[C@@H]1C(=O)N2C(C(=O)O)=C(CSc3nc(=O)c(O)nn3C)CSC12)c1csc(N)n1 (some centres not stated)	91.6
O=C(c1ccco1)N1CCN(C(=O)c2cc3cc(Br)cc(Br)c3oc2=O)CC1	100.0
COC(=O)C1=CN(C2CCCC2)C=C(C(=O)OC)C1c1ccc(Cl)cc1	97.7
CNC(=O)c1ccc(OC)c(S(=O)(=O)NC)c1	101.4
CCOC(=O)/C(C#N)=C/Nc1ccc2oc(=O)c(NC(C)=O)cc2c1	89.5
